Compound activity as filed in PubChem.
TAR Tat displ – TAR RNA-Tat peptide displacers, HIV-1, primary screen, biochemical, FRET, FAM/TAMRA-labeled Tat; HIV-1 TAR RNA, Tat peptide displacement FRET; active compounds read high; 100,000 tested, 0.6% active; z-score (test concentration not listed);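 note: score is relative to mean and SD of negative controls; some compounds called inactive have numbers as strong as hits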
CDC25B CDK2 inh – primary biochemical HTRF screen for blockers of M-phase inducer phosphatase 2 binding to CDK2/cyclin A. HTRF CDC25B-CDK2/CyclinA binding, anti-His/anti-Flag; active compounds read high. AID 1259370, 2018. z-score (test concentration not listed). 94,000 tested, 0.72% active. P30305+P24941;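 note: score is relative to mean and SD of negative controls; strong numbers were not always called active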
Starred values were filed as active, the others as inactive; nt = not tested or not shown.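 Rule for the calls: active = z-score from 3 up in half or more of its runs; inactive = the rest.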

Start of the data: the first two entries (preview)
The line under a structure holds: TAR Tat displ | CDC25B CDK2 inh
CC(C)c1nc(CN(C)C(=O)N[C@H](C(=O)N[C@@H](Cc2ccccc2)C[C@H](O)[C@H](Cc2ccccc2)NC(=O)OCc2cncs2)C(C)C)cs1
  -0.33 | nt
O=C(c1ccc(-c2cccs2)s1)c1ccc(F)cc1F
  nt | -1.4

The list itself, previewed entries included:
The line under a structure holds: TAR Tat displ | CDC25B CDK2 inh
CC(C)c1nc(CN(C)C(=O)N[C@H](C(=O)N[C@@H](Cc2ccccc2)C[C@H](O)[C@H](Cc2ccccc2)NC(=O)OCc2cncs2)C(C)C)cs1
  -0.33 | nt
O=C(c1ccc(-c2cccs2)s1)c1ccc(F)cc1F
  nt | -1.4
CO[C@@]1(NC(=O)CSCC#N)C(=O)N2C(C(=O)O)=C(CSc3nnnn3C)CS[C@@H]21
  nt | -0.6
O=C(NCc1cccs1)c1c(F)cccc1NC(=O)C(c1ccccc1)C1CCCC1 (configuration not stated)
  nt | -2.9
CCc1ccc2oc(C(=O)Nc3nc(-c4ccc(C)s4)ns3)cc(=O)c2c1
  0.26 | -0.33
O=C(O)CCN1C(=O)C2CC=C(Cl)CC2C1=O (configuration not stated)
  nt | -1.1
CC1=C(c2ccc(C)c(C)c2)S(=O)(=O)NC1=NCC(C)c1ccccc1 (configuration not stated)
  -3.2 | -5
CC(C)CCNC(=O)c1cc2n(n1)CC(C)(C(=O)NCCC(C)C)N(C)C2=O (configuration not stated)
  -0.8 | nt
CC1CCN(C(=O)Cn2c(=O)oc3cc(S(=O)(=O)N4CC(C)CC(C)C4)ccc32)CC1 (configuration not stated)
  0.34 | 0.9
Cc1oc(-c2ccc(C(=O)O)cc2)nc1CN1CCc2ccccc21
  1.8 | nt
COc1cc(C2c3c(-c4ccc(C)cc4)n[nH]c3C(=O)N2C)ccc1O (configuration not stated)
  0.6 | -0.26
COc1ccc(N2CCN(c3nn4nnnc4c4ccccc34)CC2)cc1
  0.23 | nt
CCOc1ccc(-c2oc3ccc(C)cc3c(=O)c2O)cc1
  0.09 | -0.14
CCOC(=O)N1CCN(C(=O)c2cnn(-c3ccc(F)cc3)c2-n2cccc2)CC1
  0.32 | nt
O=C(Nc1ccc(C2=NCCO2)cc1)c1ccc(C(F)(F)F)cc1
  nt | -1.1
C=Cc1ccc(CSc2nnc(C)n3c2cc2sccc23)cc1
  2.5 | nt
COC(=O)c1ccc(-c2nc(COc3ccc(C(C)(C)C)cc3)no2)cc1
  -2 | -0.46
Cc1nc(C(=O)NC2(O)C(=O)c3ccccc3C2=O)cs1
  nt | -1.8
CCCn1c(CN2CCCCC2CC)nc2c1c(=O)n(C)c(=O)n2C (configuration not stated)
  3.2 | -1.1
COc1ccc2nc(SCc3ccc(Cl)cc3)[nH]c2c1
  2.2 | -2.1
CCCn1c2ccccc2c2nnc(SC(CC)C(=O)Nc3nc4ccccc4s3)nc21 (configuration not stated)
  nt | -4.1
CC1CN(C(=O)CSc2cn(CC(=O)N3CCOCC3)c3ccccc23)CC(C)O1 (configuration not stated)
  -0.48 | nt
O=C(Nc1nn2c(-c3cccs3)nnc2s1)c1ccco1
  7 | 0.09
COc1cccc(C2NCCc3c2[nH]c2ccccc32)c1OC (configuration not stated)
  nt | -0.06
Cc1cn2c(=O)c(S(=O)(=O)NC3CCCC3)c(C)nc2s1
  -1.8 | nt
Cc1ccc(-c2nn3nnnc3c3ccccc23)cc1
  -0.04 | -4.4
Cc1cc2c(cc3c(SCC(=O)NCc4ccco4)nncn32)o1
  27* | nt
COCCNS(=O)(=O)c1c[nH]c(C(=O)OC)c1
  2.4 | nt
Cc1nc2nc(NC(=O)C(C)(C)C)[nH]n2c(=O)c1C
  -0.87 | -0.68
CC(C)(C)OC(=O)NCCCN=Cc1ccc(C(F)(F)F)cc1
  nt | -3.5
Cc1nc(C(F)(F)F)ccc1C(=O)Oc1ccc(F)cc1F
  nt | -1.2
CC1CCCC(C)N1C(=O)c1cc2c(s1)-c1ccccc1OC2 (configuration not stated)
  0.87 | 0.7
O=C(Cc1ccccc1)Nc1nc(-c2ccc(Br)cc2)ns1
  1.6 | -0.82
O=C1CN(Cc2ccccc2Cl)S(=O)(=O)c2ccccc2N1Cc1ccc(Cl)cc1
  0.53 | nt
Cc1cc2nc3c(=O)n(Cc4ccccc4)c(=O)[nH]c3nc2cc1N
  -6.4 | -0.55
Cc1nc(-c2ccc(C)c(S(=O)(=O)N3CCN(c4ccc(Cl)cc4)CC3)c2)cs1
  -0.07 | nt
CCOCCCNS(=O)(=O)c1cc(Br)cc2c1N(C(=O)C1CC1)CC2
  nt | -0.01
Cc1c(C(=O)NCCCN2CCCC2=O)sc2nc3n(c(=O)c12)CCCC3
  0.6 | nt
COc1cnc(CSc2nnnn2C)cc1OCC(=O)NCC1CCCO1 (configuration not stated)
  2.1 | nt
O=C(CN1C(=O)CSc2ccc(S(=O)(=O)N3CCOCC3)cc21)N1CCc2ccccc21
  -0.28 | nt
O=C(CC1Nc2ccccc2NC1=O)NCCCN1CCCCCC1 (configuration not stated)
  nt | 0.95
CCN(CC)CCNC(=O)C1CCCN(S(=O)(=O)c2ccc3c(ccn3CC)c2)C1 (configuration not stated)
  0.3 | nt
CCOCCOC(=O)C1=C(C)NC2=C(C(=O)CC(C)(C)C2)C1c1cccc(OC)c1OC (configuration not stated)
  -0.92 | -1.7
CCc1nnc(SC(CC)C(=O)Nc2ccc(F)cc2)c2cc3occc3n12 (configuration not stated)
  0.7 | nt
COc1ccc(Nc2cc(N3CCC(=O)CC3)c3noc4c3c2C(=O)c2ccccc2-4)cc1
  -0.22 | 0.9
Cc1cc(C)cc(NC(=O)CSC2=Nc3ccccc3C3=NC(C(C)C)C(=O)N23)c1 (configuration not stated)
  1.5 | nt
Cc1cc(C)cc(NC(=O)c2oc3ccc4c(c3c2C)C(=O)CC(C)(C)O4)c1
  0.23 | nt
COc1ccc(NC(=O)NCC2CCN(C3CCCC3)C2)c(OC)c1 (configuration not stated)
  0.58 | -1.2
Cn1nc(C(=O)N2CCCC2)c2c1CCN(S(=O)(=O)c1cccc3nsnc13)C2
  0.56 | nt
CC(Oc1ccc2c(-c3ccccc3)cc(=O)oc2c1)C(=O)O (configuration not stated)
  nt | -0.62
COC(=O)CCSc1nc2sc3c(c2c(=O)n1-c1ccc(OC)cc1)CC(C)(C)OC3
  nt | -0.3
Nc1c(-c2nc(-c3cccs3)no2)nnn1-c1ccc(Cl)cc1
  0.92 | nt
CCn1c(=S)[nH]c2c(c1=O)C(C)(C)Cc1ccccc1-2
  nt | -2.9
Cc1ccc(S(=O)(=O)NC(=O)NNc2ncnc3scc(-c4ccccc4)c23)cc1
  nt | -0.49
Cc1c(C(=O)NC2CCCc3ccccc32)oc2ccc(S(=O)(=O)N3CCCC3)cc12 (configuration not stated)
  nt | 0.32
COC(=O)C1=C(OC(=O)CN2C(=O)CCC2=O)c2ccccc2S(=O)(=O)N1C
  0.59 | -2.2
CCN(CC)CC(O)CN1c2ccccc2Sc2ccccc21 (configuration not stated)
  -1.5 | -1.5
NC(=O)c1c(NC(=O)COCc2cc(-c3ccc(F)cc3)on2)sc2c1CCCC2
  1.1 | nt
CSc1ccc(-c2nc3nc[nH]n3c2Nc2ccccc2)cc1
  -1.4 | -2.2
CN(C)c1ccc(NC(=O)c2sc3ccccc3c2Cl)cc1
  nt | -1.3

Not a retest: an excerpt of the list.
The line under a structure holds: TAR Tat displ | CDC25B CDK2 inh
CC(C)c1nc(CN(C)C(=O)N[C@H](C(=O)N[C@@H](Cc2ccccc2)C[C@H](O)[C@H](Cc2ccccc2)NC(=O)OCc2cncs2)C(C)C)cs1
  -0.33 | nt
O=C(c1ccc(-c2cccs2)s1)c1ccc(F)cc1F
  nt | -1.4
CO[C@@]1(NC(=O)CSCC#N)C(=O)N2C(C(=O)O)=C(CSc3nnnn3C)CS[C@@H]21
  nt | -0.6
O=C(NCc1cccs1)c1c(F)cccc1NC(=O)C(c1ccccc1)C1CCCC1 (configuration not stated)
  nt | -2.9
CCc1ccc2oc(C(=O)Nc3nc(-c4ccc(C)s4)ns3)cc(=O)c2c1
  0.26 | -0.33
O=C(O)CCN1C(=O)C2CC=C(Cl)CC2C1=O (configuration not stated)
  nt | -1.1

Following part
The line under a structure holds: TAR Tat displ | CDC25B CDK2 inh
CCOC(=O)CSc1nc2sc(C(=O)N3CCCC3)c(C)c2c(=O)n1CCc1ccccc1
  nt | 0.18
Cc1cc(NC(=O)CSc2ncc(C(=O)Nc3ccccc3)c(=O)n2C)no1
  0.25 | nt
O=C1CC(C(=O)Nc2ccc(F)c(Cl)c2)C2=C(CCCC2=O)N1 (configuration not stated)
  0.13 | -1.4
O=C(O)c1ccccc1NCc1ccco1
  nt | -3.2
COCCn1c(Cc2cccn2C)nnc1SCC(=O)Nc1ccc2c(c1)OCO2
  2.3 | -1.7
Cc1ccc(/C(O)=C2\C(=O)C(=O)N(Cc3cccnc3)C2c2cccnc2)cc1 (configuration not stated)
  0.49 | -0.32
O=C(Nc1ccc2c(c1)OCO2)C(=O)c1cn(CC(=O)N2CCOCC2)c2ccccc12
  -0.18 | nt
O=S1(=O)C[C@H](NCc2ccccc2)[C@@H](S(=O)(=O)c2ccccc2)C1
  -1.2 | -1.4
CSc1cccc(NC(=O)CSc2nc(-c3ccccc3C)nc3cc(=O)[nH]n23)c1
  -0.66 | nt
COc1cc(CSc2ncc(CO)n2Cc2ccc(C)cc2)cc(OC)c1
  1.1 | nt
CCC(=O)N1c2ccccc2-c2nnc(SC)nc2OC1c1ccc(C(=O)O)cc1 (configuration not stated)
  -0.46 | 0.09
COC(=O)c1[nH]cc(-c2ccccc2)c1-n1cccc1
  0.02 | 1.4
O=C(c1cnccn1)N1CCN(c2ccc(=O)n(-c3ccc(F)cc3)n2)CC1
  0.75 | nt
CCOC(=O)CCc1c(C)nc2nc(NCc3cccs3)[nH]n2c1=O
  0.78 | -1.9
Oc1ccccc1C1=NN2C(C1)c1ccccc1OC2c1ccsc1 (configuration not stated)
  -2 | -0.14
O=C(Nc1nc2ccc(Cl)cc2s1)c1cccs1
  nt | -4
CCOC(=O)N1CCN(C(=O)CCCCn2c(=O)[nH]c3ccsc3c2=O)CC1
  0.18 | 5.1
O=C(NCc1cccnc1)c1ccc(CSc2nc3cccnc3n2Cc2ccc(F)cc2)cc1
  0.76 | nt
COc1cnc(CSc2nc(C)cs2)cc1OCC(=O)NC1CCCCC1
  0.98 | nt
O=C(NC1CC1)C1CCN(S(=O)(=O)N2CCCC2)CC1
  nt | -2.3
Cc1ccc(-c2nn3c(C)nnc3s2)cc1NC(=O)c1cccs1
  0.94 | -2
Cn1c(=O)c2c(-c3ccccc3Cl)n(CC3CCCO3)cc2n(C)c1=O (configuration not stated)
  0.18 | 0.74
COc1ccc(-c2cc(OC(=O)c3ccco3)c3c(C)oc(C)c3c(=O)c2)cc1OC
  -3.4 | 0.09
Cc1cccc(N2C(=O)N(c3ccc(C)c(Cl)c3)C3CS(=O)(=O)CC32)c1 (configuration not stated)
  -6.3 | -1.8
CCOC(=O)C1=C(c2ccccc2)NC(SCC(=O)OC)=C(C#N)C1c1ccco1 (configuration not stated)
  2.5 | 0.05
CC(=O)NC(c1ccccc1)n1cncn1 (configuration not stated)
  nt | -2.8
Cc1ccc(S(=O)(=O)NCCc2csc(-c3ccc(F)cc3)n2)c(C)c1
  1.5 | nt
CCN1CCN(C(=O)Cn2cc(S(=O)(=O)NC)c(S(=O)(=O)NC)c2)CC1
  0.04 | nt
Cc1oc2ncnc(N3CCCCC3)c2c1C(=O)NC(C)CCc1ccco1 (configuration not stated)
  -0.4 | nt
CCOC(=O)N1CCC2(CC1)OC(=O)C(C)=C2C(=O)NCCOC
  1.3 | nt
CCCSCCCNC(=O)Cn1nc(-n2cccc2)c2c(C)cc(C)nc21
  0.7 | nt
CNC(=S)c1sc2ccccc2c1C
  nt | -1.2
Clc1nccc2c1ccc1ccccc12
  nt | -0.24
O=c1oc2cc3occ(-c4ccc(Cl)cc4)c3cc2c2ccccc12
  0.36 | -0.91
CCOC(=O)c1ccc(N2C(=O)c3n[nH]c(C)c3C2c2ccc(C(C)C)cc2)cc1 (configuration not stated)
  -0.19 | nt
Cc1nc2sc3ccccc3n2c(=O)c1S(=O)(=O)Nc1ccc(Oc2ccc(Cl)cc2)cc1
  1.1 | nt
Cc1c(C(=O)NCc2ccco2)oc2c1-c1[nH]ncc1CC2
  -0.66 | -1.4
CC1=C(C(=O)OC(C)C)C(c2ccc3c(c2)OCO3)C2=C(CCCC2=O)N1 (configuration not stated)
  -0.01 | -1.5
CCC(O)c1nc2ccccc2n1CCCOc1ccccc1C (configuration not stated)
  1.4 | -1.4
Cc1ccc(-c2cnc3c(-c4ccc(Cl)cc4)cnn3c2N)cc1
  -0.99 | -5.2
CCc1nn(CCCC(=O)N2CCC(C)CC2)c(=O)c2cc3occc3n12
  0.48 | -2.6
O=C(c1ccco1)N1CCC(c2nc3ccccc3s2)CC1
  0.85 | -2.1
O=C(CSc1nccn(-c2ccc(F)cc2)c1=O)c1ccc(Cl)cc1
  -0.1 | nt
CCOC(=O)/C(N=Nc1ccc(C(F)(F)F)cc1)=C(/O)CSc1nnc(C(F)(F)F)n1C
  nt | -1.6
O=c1c(NC2CCCC2)c(-c2ccccc2)c1=O
  1.6 | nt
COc1ccc(C2OC(c3ccc(Br)cc3)=NN2C(C)=O)cc1 (configuration not stated)
  0.33 | 0.35
Cn1cnnc1SCC(=O)n1c2ccccc2c2ccccc21
  2.5 | -1.2
Cc1cccc(-c2nc3nc(C)cc(NCc4ccccc4Cl)n3n2)c1
  1.8 | nt
CCCNC(=O)NC1CCN(c2nc(C)cc(C)n2)CC1
  -0.2 | -1.4
COc1cc2c(=O)n(Cc3cccs3)c(=S)[nH]c2c(OC)c1OC
  nt | -2.8
COC(=O)CSc1c(Cl)cncc1Cl
  nt | -0.31
